liver stage: Plasmodium liver-stage growth inhibition, dose response, imaging, Malaria Box, P. yoelii, HepG2-A16-CD81EGFP (AID 602156); calls after a first round at 10 µM; hits with a dose series show IC50 in µM; 4.8% of 5,700 active; P. yoelii liver stage in HepG2-A16-CD81EGFP, imaging; first-round cut-off not given here; in the data active = a potency from the dose series;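 note: infected cells exposed to compound for 48 hours before fixation; stained parasite area by imaging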
Numbers without * were called inactive; i = inactive. Only part of the results is shown; count on the stated rates, not on these rows.

structure	liver stage
Cc1cc(Nc2cccc(F)c2)nc(NCc2ccccc2)n1	1.1µM*
COc1ccc(C2c3[nH]c4ccccc4c3C[C@H]3C(=O)N(CCC(C)C)CC(=O)N23)cc1 (some centres undefined)	i
COc1cc(C=NNc2nc3nonc3nc2Nc2ccc(Cl)cc2)ccc1O	i
CCOC(=O)c1ccc(N(C(=O)Cc2c[nH]c3ccccc23)C(C(=O)NC2CCCCC2)c2cccc(OC)c2OC)cc1 (centres undefined)	i
Cc1ccc(NC(=O)N2CCN(C(=O)c3nc(-c4ccccc4)nc(C)c3C(=O)OC(C)C)CC2C)cc1 (centres undefined)	i
CCN(C(=O)CSc1nc(-c2ccc(C(C)C)cc2)no1)c1cccc(C)c1	i
COc1cccc(-c2cncc(-c3cncc(OC)c3)n2)c1	i
O=C1c2ccccc2C2=Nc3ccccc3SC(c3cccc(F)c3)C12 (centres undefined)	0.16µM*
CC1=CC(=C(C#N)c2nc3ccccc3s2)C=C(C)N1CC1CCCO1 (centres undefined)	i
CCCCCCCCCC(=O)Oc1ccccc1-c1nc2cc(C)ccn2c1NC(C)(C)CC(C)(C)C	i
O=C(Nc1nccs1)c1cc(-c2cccnc2)nc2ccc(Br)cc12	i
COc1ccc(C=CC(=O)NC(=O)c2ccccc2O)cc1OC	i
CCOc1ccc(CCN2C(=S)N(c3cccc(C(F)(F)F)c3)C(=O)C2CC(=O)Nc2ccc(C(=O)OC)cc2)cc1OCC (centres undefined)	i
CCOc1ccc(Nc2cc(=O)oc3ccccc23)cc1	0.5µM*
O=C1C=C(Nc2ccc(O)cc2)c2ccccc2C1=O	i
CN(C)CCCNc1ncnc2c1[nH]c1ccc(Cl)cc12	i
Cc1ccc(NC(=O)N(CCCN(C)C)Cc2cc3cc4c(cc3[nH]c2=O)OCO4)cc1	i
CC(=NNC(=O)/C(=C/c1ccc([N+](=O)[O-])cc1)NC(=O)c1ccccc1)c1ccccn1	i
C/C=C/C(C(=O)NCCCC)N1C(=O)c2cc(NC(C)=O)ccc2NC(=O)[C@@H]1CCC(=O)O (some centres undefined)	i
COc1ccc(CN(Cc2cc3cccc(C)c3[nH]c2=O)C(=S)NC2CCCCC2)cc1	i
Clc1ccc2[nH]c3c(NCCC4=CCCCC4)ncnc3c2c1	i
COc1ccc(C=C2SC(=N)N(c3ccc4c(c3)OCO4)C2=O)cc1OC	i
Nc1ccc(-c2nc3ccc(-c4ccc5nc(-c6ccc(N)cc6)[nH]c5c4)cc3[nH]2)cc1	i
CCOC(=O)C1=C(C)NC2=C(C(=O)CC(c3ccc(OC)c(OC)c3)C2)C1c1cccc(Cl)c1 (centres undefined)	i

Structures from the list above that contain a Cl atom, in the order listed:
structure	liver stage
COc1cc(C=NNc2nc3nonc3nc2Nc2ccc(Cl)cc2)ccc1O	i
CN(C)CCCNc1ncnc2c1[nH]c1ccc(Cl)cc12	i
Clc1ccc2[nH]c3c(NCCC4=CCCCC4)ncnc3c2c1	i
CCOC(=O)C1=C(C)NC2=C(C(=O)CC(c3ccc(OC)c(OC)c3)C2)C1c1cccc(Cl)c1 (centres undefined)	i

Remaining list, next part
structure	liver stage
Cc1noc(C)c1S(=O)(=O)N(CC(C)C)C(C(=O)NC(CN1CCCC1)c1ccccc1)c1ccccc1 (centres undefined)	i
CCCCCC(=O)Oc1ccccc1-c1nc2ccccn2c1NC(C)(C)CC(C)(C)C	i
Cc1ccccc1-c1cnnc(NCC2CCCCO2)n1 (centres undefined)	i
O=C(/C=C/c1ccccc1)Nc1ccc(C(=O)OC[C@@H]2CCCN3CCCC[C@H]23)cc1	i
CCCC(=O)N(C/C=C/c1ccccc1OC)CCN1CCN(C(=O)Nc2cccc(C)c2)CC1	i
CNC1=C(N(C(C)=O)c2ccc(Br)cc2)C(=O)c2ccccc2C1=O	i
O=C(CCl)NCCCN(C(=O)Nc1ccc(Cl)c(Cl)c1)c1ccccc1	i
CCOc1ccccc1-n1c(C(C)N(Cc2ccccc2)C(=O)Nc2ccccc2OC)nc2ccccc2c1=O (centres undefined)	i
COc1ccc(OCC(=O)Nc2cccc(NC(=O)COc3ccc(OC)cc3)n2)cc1	i
CC(C)N1CCCC(C(=O)Nc2ccc(-c3nc4ccccc4[nH]3)cc2)C1 (centres undefined)	i
O=C(CSc1oc(-c2ccc(Cl)cc2)nc1[P+](c1ccccc1)(c1ccccc1)c1ccccc1)c1ccccc1	i
O=C1C(Nc2ccc(Cl)cc2)=C(N2CCCCC2)C(=O)c2ccccc21	i

An excerpt of these results, as labelled records:
CCOC(=O)C1=C(C)NC2=C(C(=O)CC(c3ccc(OC)c(OC)c3)C2)C1c1cccc(Cl)c1 (centres undefined)
  liver stage = i

CCCC(=O)N(C/C=C/c1ccccc1OC)CCN1CCN(C(=O)Nc2cccc(C)c2)CC1
  liver stage = i

CC1=CC(=C(C#N)c2nc3ccccc3s2)C=C(C)N1CC1CCCO1 (centres undefined)
  liver stage = i

CNC1=C(N(C(C)=O)c2ccc(Br)cc2)C(=O)c2ccccc2C1=O
  liver stage = i

More entries:
structure	liver stage
CCCCN(CCCC)S(=O)(=O)c1nc(C)c(Cl)c(C)c1C#N	i
COc1cc(NC2=CC(=O)C(=O)c3ccccc32)c(OC)cc1Cl	i
COc1cccc(C=NNC(=O)c2ccccc2O)c1O	i
CSc1nc(SC)c2c3c(sc2n1)CN(C)CC3	i
Nc1ccc2nc(/C=C/c3ccc(Cl)cc3)[nH]c2c1	i
Cc1cc([N+](=O)[O-])ccc1-c1ccc(C(=O)Nc2ccc(-c3nc4ccccc4[nH]3)cc2)o1	i
COc1cc(C2c3[nH]c4ccccc4c3C[C@H]3C(=O)N(CCc4ccccc4)CC(=O)N23)cc(OC)c1OC (some centres undefined)	i
CCOc1ccc(N(C(=O)C2COc3ccccc3O2)C(C(=O)NC2CCCCC2)c2cn(C)nc2C)cc1 (centres undefined)	i
CCOC(=O)c1c(CNC)n(C)c2cc(Br)c(O)cc12	i
Cc1cc(NCCN2CCCCC2)c2ccc3ccccc3c2n1	i
Cc1cc(C(=O)Nc2cnn(Cc3ccc(Cl)cc3Cl)c2)no1	0.34µM*
CCOC(=O)C1=C(C)NC2=C(C(=O)CC(c3ccc(OC)c(OC)c3)C2)C1c1c(F)cccc1Cl (centres undefined)	i
O=C(Nc1nc2ccccc2s1)c1ccc(S(=O)(=O)N2CCOCC2)cc1	i
CCOc1ccc2[nH]c(=O)c(C(c3nnnn3CCOC)N3CCCC3)cc2c1 (centres undefined)	i
COc1ccc(-n2nc(C(C)(C)C)cc2NC(=O)CN(C(=O)c2ccc(C)c([N+](=O)[O-])c2)C(C)C)cc1	i
O=C(Nc1ccc(-c2cnc(-c3ccc(NC(=O)c4cccc([N+](=O)[O-])c4)cc3)nc2)cc1)c1cccc([N+](=O)[O-])c1	i
COC(=O)C1N(C(=O)OC)c2ccc([N+](=O)[O-])cc2S1(=O)=O (centres undefined)	i
CN(C)CCN(C)Cc1cc(Br)cs1	i
COc1ccc2nc(SCC(=O)Nc3cccc(NC(=O)CSc4nc5ccc(OC)cc5[nH]4)n3)[nH]c2c1	i
CCN(CC)CCNC(=O)C1c2ccccc2C(=O)N(Cc2ccc(F)cc2)C1c1ccc(OC)cc1 (centres undefined)	i
CC1CCC(C(C)C)C(OC(=O)Cn2c(-c3ccccc3)[n+](C)c3ccccc32)C1 (centres undefined)	i
COc1ccc(C2=C(c3ccc(OC)cc3)C3(c4ccccc4)C(=O)C2(c2ccccc2)C2C(=O)N(c4ccccc4)C(=O)C23)cc1 (centres undefined)	i
COc1ccc(C2N=C(N)N=C(N)N2c2ccc(C)cc2)cc1 (centres undefined)	i
O=C1c2cccc3c(C4=NN(c5ccccc5)C(c5ccc(Cl)cc5)C4)ccc(c23)C(=O)N1c1ccccc1 (centres undefined)	i
COc1cc2nc(SCC(C)C)n(CCCn3ccnc3)c(=N)c2cc1OC	i
CCOC(=O)c1c(S(=O)(=O)N2CCCC(C(=O)N3CCN(c4cccc(C)c4C)CC3)C2)c(C)n(C)c1C (centres undefined)	i
CCN(CC)CCCC(C)NCc1ccc(OCc2ccccc2)c(OC)c1 (centres undefined)	i
CCOC(=O)C1=C(C)N=c2sc(=Cc3ccc(I)o3)c(=O)n2C1c1ccccc1Cl (centres undefined)	i
O=C(CNCCc1ccccc1)NC(c1ccccc1)c1ccccc1	i
Nc1cc2c(cc1Br)CCCC2	i
N#Cc1ccc(NC(=O)c2cc(Cl)ccc2O)cc1	i
COc1ccccc1CNc1ncc(C(=O)NCCCN2CCCC2=O)c(NCCc2ccccc2)n1	i
COC(=O)C1=C(C)NC2=C(C(=O)CC(c3ccc(OC)c(OC)c3)C2)C1c1cccc(Cl)c1Cl (centres undefined)	i
Cc1nc2ccc(-c3ccc4nc(C)[nH]c4c3)cc2[nH]1	i
CCN(CC)CCCN(Cc1cc2cc3c(cc2[nH]c1=O)OCCO3)C(=S)Nc1cccc(Cl)c1	i
O=C(/C=C/c1ccccc1)Nc1ccccc1C(=O)Nc1ccc(-c2nc3ccc(NC(=O)c4ccccc4NC(=O)/C=C/c4ccccc4)cc3[nH]2)cc1	i
Cc1cc(/C=C2\SC(=Nc3ccccc3)N(C3CCCCC3)C2=O)c(C)n1-c1ccc(F)cc1	i
COC(=O)C1=C(C)NC2=C(C(=O)CC(c3ccc(Cl)cc3)C2)C1c1ccccc1 (centres undefined)	i
CC1(C)N=C(N)N=C(N)N1c1ccc(Br)cc1	i
CCN(CC)CCNc1ncnc2c1[nH]c1ccc(F)cc12	i
COc1ccc(Nc2nc(NN=Cc3cccc(Cl)c3)nc(Nc3ccc([N+](=O)[O-])cc3)n2)cc1	i
Cc1cc(C)c2c(c1)-c1c(ssc1=S)C(C)(C)N2C(=O)COc1nc2ccccc2s1	i
CCOC(=O)C1CSC(c2ccc(C(F)(F)F)cc2)N1C(=O)/C=C/c1ccccc1 (centres undefined)	i
Cc1cccc(-n2nc(C(C)(C)C)cc2NC(=O)CN(C(=O)/C=C/c2ccccc2)C(C)C)c1C	i
COc1cc(OC)c(NC(=O)C2c3ccccc3C(=O)N(CC(C)C)C2c2cccs2)cc1Cl (centres undefined)	i
CCCN(CCC)CCCNc1ccc(C(=O)Nc2cccc(OC)c2)cc1[N+](=O)[O-]	i
CC[n+]1c(/C=C2\C=C(C)CC(C)C2)sc2ccccc21 (centres undefined)	i
COc1ccc(-c2c[n+](Cc3ccc(Cl)cc3Cl)c3n2CCC3)cc1	i
CCN(CC)CCCC(C)NCc1ccc(OC)c(OCc2ccccc2)c1 (centres undefined)	i
Clc1ccc2c(c1)CN(C1CCCCC1)CO2	i
COc1cc(NC(C)CCCN(Cc2ccccc2OC)S(=O)(=O)c2ccc(Br)cc2)c2ncccc2c1 (centres undefined)	i
C=CC1(C)CC23CC(C(OC(=O)c4ccccc4)c4ccnc5ccccc45)N2CCC13 (centres undefined)	i
O=C1C(Nc2ccc(F)cc2)=C(N2CCCCC2)C(=O)c2ccccc21	i
Cc1cc(N2CCCCC2)nc2ccc(NC(=O)c3cncc(Br)c3)cc12	i
COc1cc(C2c3[nH]c4ccccc4c3C[C@@H]3C(=O)N(CCc4ccccc4)CC(=O)N23)cc(OC)c1OC (some centres undefined)	i
CCCCN(CCCC)CC(O)c1cc(-c2ccc(Cl)cc2)nc2cc(Cl)ccc12 (centres undefined)	i
O=C(CCl)NCCOc1ccc(Cl)cc1Cl	i
COc1ccccc1Cn1c(SCC(=O)Nc2cccc(C(F)(F)F)c2)nc2ccc(Br)cc2c1=O	i
Cc1nc2cc(-c3ccc(F)cc3)nn2c(NCCCn2ccnc2)c1C	i
CC(=O)Nc1ccc(C(=O)N2CCC(Oc3cccc(CN(C)Cc4cccc5ccccc45)c3)CC2)cc1	i

(further entries)
structure	liver stage
CC(C)CCN(CCC(C)C)CC(O)Cn1c2ccc(Br)cc2c2cc(Br)ccc21 (centres undefined)	i
CCN(CC)c1ccc(C=C(C#N)c2nc3ccccc3[nH]2)o1	i
CC(=O)N(C1=C(N2CCCCC2)C(=O)c2ccccc2C1=O)c1ccc(F)c(F)c1	i
CCCC1=NN(c2nc3ccccc3s2)C(=O)C1	i
O=c1c2c([nH]c3ccccc13)CCCCCCCCCC2	0.099µM*
FC(F)(F)c1ccccc1CN1CCc2nc(N3CCCCC3)sc2C1	i
CCCNC1=C(N(C(C)=O)c2ccc(C)cc2)C(=O)c2ccccc2C1=O	i
Cc1ccc(Nc2cc(C)nc(NCc3ccccc3)n2)c(C)c1	1.3µM*
FC(F)(F)c1ccccc1NC(=S)N1CCCN(c2nc3ccc(Cl)cc3s2)CC1	1.6µM*
O=C(Nc1cccc(-c2nc3ccccc3[nH]2)c1)c1ccccc1[N+](=O)[O-]	i
COc1cc(C=C(C#N)c2nc3ccccc3[nH]2)ccc1OCc1ccc(C)cc1	i
CC(C)c1ccc(C=C2SC(=Nc3ccccc3)NC2=O)cc1	i
Oc1ccccc1CNC(Cc1ccccc1)C(O)(c1ccccc1)c1ccccc1 (centres undefined)	i
FC(F)(F)c1cccc(NC(=S)N2CCCC2c2ccccc2C(F)(F)F)c1 (centres undefined)	i
C=CCN1C(=O)/C(=C\c2ccccc2)C(C(=O)OC)=C1C	i

Source: PubChem BioAssay
